Autofluor counter: compound fluorescence in toxin protease inhibitor counterscreen; AID 624483; hit rate 3.1% among 360,000; compound autofluorescence counterscreen, microsphere flow cytometry; active compounds read high; fluorescence intensity (concentration not given with the values);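 active means at least 3 SD above the mean of all compounds, about 16000 in these data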;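 further: 100 nL of 1 mM stock went into each well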
Numbers without * were called inactive. A portion of the library; the hit share may differ from the screen's.

SMILES	Autofluor counter
OCCNc1ncnc2c1ncn2[C@H]1CN(Cc2ccc(-c3ccccc3)cc2)C[C@@H](CO)O1	3287
Cc1ccc(C(C#N)=Cc2ccc3c(c2)OCO3)cc1	2824
O=C(NCc1cccc(F)c1)Nc1nnc([C@H]2C[C@H](O)[C@@H](CO)O2)s1	3789
COc1cccc(CN2CCC2(C)C(=O)Nc2cnc3ccccc3c2)c1F (centres undefined)	3992
COc1cc(CN2C[C@@H](CO)O[C@@H](n3cnc4c(NCCN(C)C)ncnc43)C2)cc(OC)c1OC	2927
COc1cc(C=Cc2nnc3c4ccccc4cnn23)cc(OC)c1OC	2949
O=S1(=O)CC(N2CCC(Cc3ccccc3)CC2)CN1CCc1ccccc1 (centres undefined)	6504
CCCCN(C)c1c(C)nc2ccc(C(=O)N(C)CCN(C)C)cn12	3898
COc1ccc(C(C)=O)cc1Cn1c(C)c(C(=O)NCCC#N)sc1=O	4197
CC1=C(C(=O)N(C(C)C)C(C)C)CC(CC(=O)NCC2CCCCC2)C(=O)N1Cc1ccc(C(C)(C)C)cc1 (centres undefined)	5798
Cc1cn([C@H]2C[C@H](O)[C@@H](CNC(=O)[C@H]3CCC(=O)N3)O2)c(=O)[nH]c1=O	3794
COc1ccccc1-c1csc(C(O)c2ccc(F)c(F)c2)n1 (centres undefined)	3523
COc1ccc(CN2CCC(C)(Oc3cccc(F)c3)C2)c2ccccc12 (centres undefined)	3236
OC(c1ccc(Cl)c(F)c1)c1ncc(-c2ccc(Cl)cc2)[nH]1 (centres undefined)	3912
CC(O)(c1ccccc1)c1nc(-c2ccccc2)cs1 (centres undefined)	2965
CCOC(=O)C1=C(C)NC(C)=C(C(=O)OCC)C1c1cccc([N+](=O)[O-])c1	2842
CC(C)Cc1ccc(CN2C(C(C)C)C(=O)N(Cc3cn(CCC4OCCO4)nn3)CCS2(=O)=O)cc1 (centres undefined)	5354
CCOC1=C2[C@H](c3ccccc3)N(S(=O)(=O)c3ccc(C)cc3)C(C(C)(C)C)[C@H]2n2c(=O)n(-c3ccccc3)c(=O)n2C1 (some centres undefined)	5352
Cc1cccc(C)c1NC(=O)C(c1ccccc1)N1CCN(c2ccc(C(F)(F)F)cn2)CC1 (centres undefined)	5972
COc1ccc(C(C)(O)c2nc(-c3ccccc3C)cs2)cc1 (centres undefined)	3624
CN(C)CCNC(=O)c1cccc(-c2cnc3c(NC=O)cc(-c4cccc(F)c4)cn23)c1	3912
CSc1ccc(NC(=O)C2(C)CCN2C(=O)c2cc(C)n(C)n2)cc1 (centres undefined)	3697
O=C(Nc1cccc(F)c1)N1CCc2nc(NCc3cccc(Oc4ccccc4)c3)ncc2C1	3354
COCCCN1C(=O)C(CC(=O)NCc2cccc3ccccc23)CC(C(=O)N2CCOCC2)=C1C (centres undefined)	5644
Cc1cc(O)ccc1Nc1cc(-c2cccc(N(C)C)c2)ncn1	3627

As a working copy, part of the list above:
SMILES	Autofluor counter
OCCNc1ncnc2c1ncn2[C@H]1CN(Cc2ccc(-c3ccccc3)cc2)C[C@@H](CO)O1	3287
Cc1ccc(C(C#N)=Cc2ccc3c(c2)OCO3)cc1	2824
O=C(NCc1cccc(F)c1)Nc1nnc([C@H]2C[C@H](O)[C@@H](CO)O2)s1	3789
COc1cccc(CN2CCC2(C)C(=O)Nc2cnc3ccccc3c2)c1F (centres undefined)	3992
COc1cc(CN2C[C@@H](CO)O[C@@H](n3cnc4c(NCCN(C)C)ncnc43)C2)cc(OC)c1OC	2927
COc1cc(C=Cc2nnc3c4ccccc4cnn23)cc(OC)c1OC	2949
O=S1(=O)CC(N2CCC(Cc3ccccc3)CC2)CN1CCc1ccccc1 (centres undefined)	6504
CCCCN(C)c1c(C)nc2ccc(C(=O)N(C)CCN(C)C)cn12	3898
COc1ccc(C(C)=O)cc1Cn1c(C)c(C(=O)NCCC#N)sc1=O	4197
CC1=C(C(=O)N(C(C)C)C(C)C)CC(CC(=O)NCC2CCCCC2)C(=O)N1Cc1ccc(C(C)(C)C)cc1 (centres undefined)	5798
Cc1cn([C@H]2C[C@H](O)[C@@H](CNC(=O)[C@H]3CCC(=O)N3)O2)c(=O)[nH]c1=O	3794
COc1ccccc1-c1csc(C(O)c2ccc(F)c(F)c2)n1 (centres undefined)	3523
COc1ccc(CN2CCC(C)(Oc3cccc(F)c3)C2)c2ccccc12 (centres undefined)	3236
OC(c1ccc(Cl)c(F)c1)c1ncc(-c2ccc(Cl)cc2)[nH]1 (centres undefined)	3912
CC(O)(c1ccccc1)c1nc(-c2ccccc2)cs1 (centres undefined)	2965
CCOC(=O)C1=C(C)NC(C)=C(C(=O)OCC)C1c1cccc([N+](=O)[O-])c1	2842
CC(C)Cc1ccc(CN2C(C(C)C)C(=O)N(Cc3cn(CCC4OCCO4)nn3)CCS2(=O)=O)cc1 (centres undefined)	5354
CCOC1=C2[C@H](c3ccccc3)N(S(=O)(=O)c3ccc(C)cc3)C(C(C)(C)C)[C@H]2n2c(=O)n(-c3ccccc3)c(=O)n2C1 (some centres undefined)	5352

(listing goes on)
SMILES	Autofluor counter
CCc1nc2c(OCc3cccc(OC)c3)cccn2c1N(C)C(=O)c1ccc(OC)cc1	3711
CCC/C=C/c1ccc(CN2C(C(C)C)C(=O)N(Cc3cn(CCC4OCCCO4)nn3)CCS2(=O)=O)cc1 (centres undefined)	2732
C#Cc1ccc(NC(=O)C2(C)CCN2C(=O)C/C=C/c2ccccc2)cc1 (centres undefined)	3844
COc1cccc(CNC(=O)[C@@H]2CCCN2C(=O)[C@@H]2CCCN2C(=O)c2ccc(Cl)cc2)c1	5823
CC1=C(C(=O)N(C)C)CC(CC(=O)NC(c2ccccc2)c2ccccc2)C(=O)N1Cc1ccc(F)cc1 (centres undefined)	2885
COCCNC(=O)C1CCCN(C(=O)c2cc(C)nn2C(C)(C)C)CC1 (centres undefined)	3815
Cc1cnc(C(=O)N(c2ccc(N3CCOCC3)cc2)C2C(=O)Nc3ccccc3N=C2c2ccc3c(c2)OCO3)cn1 (centres undefined)	5442
O=C(Nc1ccc2c(c1)OCO2)C1Cc2c(-c3ccc4c(c3)OCO4)ccnc2O1 (centres undefined)	3434
O=NN(C(=O)NCc1cccnc1)C1CCCCC1	6078
Cc1cccnc1C(NC(=O)C1CCN(Cc2ccc(Cl)cc2)CC1)c1ccccc1 (centres undefined)	3690
CCCCC[C@@H]1CCCCC[C@@H](O)C[C@H](O)[C@H](O)/C=C/C(=O)O1	6046
O=C1NC[C@H](CCCCN2C[C@H](Cc3ccccc3)N(CCc3ccccc3)C(=O)C2=O)N(CCC2CCCCC2)C1=O	5859
COc1cc(C(O)c2nc(-c3cccc(C(F)(F)F)c3)cs2)ccc1F (centres undefined)	3444
CCOC(=O)[C@@H](NC(=O)CC[C@H]1O[C@@H](n2cc(C)c(=O)[nH]c2=O)C[C@@H]1O)C(C)C	2924
C[C@H](CO)N1C[C@H](C)[C@@H](CN(C)C(=O)c2ccncc2)OCc2cnnn2CCCC1=O	2941
O=C(NCc1cccnc1)c1csc([C@H]2C[C@H](O)[C@@H](CO)O2)n1	3793
O=[N+]([O-])c1ccc(Nc2ccccc2O)c([N+](=O)[O-])c1	4836
COc1ccc(CC(O)CO)cc1OCc1ccccc1 (centres undefined)	3847
COc1ccc(Cl)cc1S(=O)(=O)NC(C)c1cnn(-c2ccccn2)c1C (centres undefined)	3716
C[C@@H]1CCCCO[C@H](CN(C)C(=O)Nc2ccccc2)[C@@H](C)CN([C@H](C)CO)C(=O)c2cc(NS(=O)(=O)c3cn(C)cn3)ccc2O1	4211
O=S1(=O)N[C@@H](Cc2ccccc2)COc2cc(N3CC[C@H](O)C3)ccc21	4626
CCN(CC)S(=O)(=O)c1ccc(N2CCOCC2)c(NC(=O)c2nn(C(C)C)c(=O)c3ccccc23)c1	2994
Cc1cc(=O)c2c(=O)[nH][nH]c2[nH]1	3717
O=C(NCc1ccccc1Br)c1cccs1	3304
CC1(C(=O)NS(=O)(=O)Cc2cccc(Cl)c2)CCN1C(=O)CCc1cccs1 (centres undefined)	4068
SMILES	Autofluor counter
c1ccc(-c2cc3nc(NCc4cccs4)nc(NCc4ccc5occc5c4)c3s2)cc1	2936
CCCCN(C)CCCNC(=O)Cn1cc2c(n1)-c1c(oc(C(=O)N3CCCC3)c1C)CC2	4082
CCC(c1nnnn1-c1c(C)cccc1C)N1CCN(CCN2CCOCC2)CC1 (centres undefined)	5947
CC(=O)C1CCC2C3CCC4=CC(=O)CCC4(C)C3C(O)CC12C (centres undefined)	5577
CSc1ccccc1C(=O)OCC(=O)NC1CC1	2823
C[C@H](CO)N1C[C@H](C)[C@@H](CN(C)S(=O)(=O)c2cn(C)cn2)Oc2ncc(Br)cc2C1=O	3779
O=C(Nc1ccc(Cl)c(C(F)(F)F)c1)C1Cc2c(-c3ccccc3Oc3ccccc3)ccnc2O1 (centres undefined)	3926
Cc1cccc(-c2ocnc2C(=O)Nc2ncc(C)s2)c1	4076
O=C(O)C(=Cc1ccccc1Cl)c1ccccc1	4533
COCCNc1nc(NCc2cccc(OC)c2)c2sc(-c3ccccc3)cc2n1	4245
Cn1c(SCC(=O)NC2CCCCC2)nc2c(c1=O)SCC2	3430
CCNC(=O)c1cc2c(c(-c3cccc(-c4ccccc4F)c3)n1)[C@H](CCO)N(C(=O)CC)C2	6115
CN(C)Cc1ncccc1Oc1nc2cc(-c3cccc(Cl)c3)sc2c(=O)n1C	3919
COc1ccc([C@H]2CC(=O)C[C@@H](CCn3nnc4ccccc43)O2)cc1	6392
Cc1ccc([C@H]2C[C@H](n3cc(-c4ccc(F)cc4)nn3)[C@@H](O)CN2C(=O)C2CCCCC2)cc1	3846
Cc1ccc(S(=O)(=O)NN=C2CC3CC2C2CCCC32)cc1 (centres undefined)	3171
CCC(c1nnnn1-c1ccc2c(c1)OCCO2)N1CCN(c2cccc(C)c2C)CC1 (centres undefined)	5762
CN1C(=O)CN(CCN2CC(=O)N(C)C(=O)C2)CC1=O	3726
O=C(CC[C@H]1O[C@@H](n2ccc(=O)[nH]c2=O)[C@H](O)[C@@H]1O)N1CCN(Cc2cccc3ccccc23)CC1	5780
CCC(=O)N1CCC1(C)C(=O)Nc1cnc2ccccc2c1 (centres undefined)	3810
CC(O)(c1ccccc1)c1nc(-c2ccncc2)cs1 (centres undefined)	3524
O=c1[nH][nH]c2c1[C@H](c1ccc(Cl)cc1)O[C@H](CCc1ccccc1)C2	5924
Cc1ccccc1C(=O)N1CCC[C@H]1C(=O)N1CCC[C@H]1C(=O)NCc1ccccn1	4125
NC(=O)c1cccc(-c2ccnc3c2CC(C(=O)NCC2CC2)O3)c1 (centres undefined)	3612
Cc1ccc(S(=O)(=O)N(C)C[C@H]2OCc3cn(nn3)CCCC(=O)N([C@@H](C)CO)C[C@@H]2C)cc1	3562
SMILES	Autofluor counter
Oc1ccc(C[C@H]2CNC(=S)N2C[C@H]2CCCN2C[C@H](Cc2ccccc2)N2C[C@H](Cc3ccc(O)cc3)N(CCc3ccccc3)C2=S)cc1	6313
COc1ccc(C2CCc3cc(OC)c(OC)cc3C2NC=O)cc1OC (centres undefined)	3558
CCC(Sc1nc2ccsc2c(=O)n1CCC(=O)O)C(=O)Nc1ccc(Cl)cc1 (centres undefined)	3985
CCN(CC)C(=O)C1=C(C)N(CCCOC)C(=O)C(CC(=O)NCC2CCCCC2)C1 (centres undefined)	2972
CC(=O)c1cccc(-c2cnc3c(NC=O)cc(-c4ccc(C(=O)N5CCOCC5)cc4)cn23)c1	4151
CCc1nc2c(OCc3ccc(Cl)cc3)cccn2c1N(C)C(=O)c1ccc2c(c1)OCO2	2772
CCCC1NC(=O)c2cc3ccccc3cc2-n2c1nc1ccc(C)cc1c2=O (centres undefined)	3670
CC(C)CC1C(=O)N(Cc2cn(Cc3ccco3)nn2)CCS(=O)(=O)N1Cc1ccc(-c2ccc(F)nc2)cc1 (centres undefined)	3610
C[C@]12CCC3C(CC[C@H]4C[C@@H](O)CC[C@]34C)C1CC[C@@]2(O)C(F)(F)F (some centres undefined)	3587
COc1ccccc1NC(=O)N(C)C[C@@H]1OCc2ccccc2-c2c(n(C)c3ccccc23)C(=O)N([C@H](C)CO)C[C@@H]1C	2923
CC(C)Nc1ncnc2c1ncn2[C@H]1CN(Cc2cccs2)C[C@@H](CO)O1	2957
CNC(=O)OCc1nc(SC2CCCCO2)n(C)c1COC(=O)NC (centres undefined)	4399
COc1cc2c(cc1OC)C(=O)C(c1ccc3c(c1)OCO3)CC2 (centres undefined)	3922
CN(Cc1ccc2c(c1)CCCN2C)C(=O)[C@H]1O[C@@H](n2ccc(=O)[nH]c2=O)[C@H](O)[C@@H]1O	6206
COc1ccccc1CN(C)C[C@@H]1OCc2cnnn2CCCC(=O)N([C@H](C)CO)C[C@H]1C	4153
COc1ccc(-c2csc(NC(=O)c3c(C)noc3C)n2)cc1OC	3663
COC(=O)[C@]12CCCCC=C1N(Cc1cccc3ccccc13)C(=O)[C@H](CC(=O)N1CCSCC1)C2	4405
CC(C)(C)Cc1c(-c2ccc(Cl)cc2)nc2c(Cl)cc(C(F)(F)F)cn12	5762
Nc1ccn([C@@H]2O[C@H](C(=O)N3CCCN(Cc4ccccc4F)CC3)[C@@H](O)[C@H]2O)c(=O)n1	4904
OC(c1cccc(Cl)c1)c1ncc(-c2ccc3ccccc3c2)[nH]1 (centres undefined)	2897
Cc1ccc(-n2c(COc3ccccc3)nnc2SCC(=O)O)cc1	3287
CC1(C(=O)O)CCCN1C(=O)c1cccc(F)c1 (centres undefined)	3024
OC(c1ccc(F)cc1)c1nc(-c2cccc(C(F)(F)F)c2)cs1 (centres undefined)	3591
CCN(CC)c1ccc(NC(=O)COC(=O)CCc2cc(OC)c(OC)c(OC)c2)cc1	3326
CC1(C(=O)Nc2cccc(Oc3ccccc3)c2)CCN1C1Cc2ccccc2C1 (centres undefined)	3856
SMILES	Autofluor counter
CCCCNC(=O)C1(C)CCN1C(=O)c1cccc2c1OCCO2 (centres undefined)	3476
COc1cc(OC)cc(C2=Cc3ccc(OC)cc3C(CC(C)=O)N2c2ccc(C#CCCO)cc2)c1 (centres undefined)	5229
Nc1[nH]c(C(=O)c2ccccc2)c(-c2ccccc2C(F)(F)F)c1C(=O)NCc1cccc2ccccc12	5498
CC1(C(=O)NS(=O)(=O)c2cccc(C#N)c2)CCN1C(=O)CCC1CCCC1 (centres undefined)	3908
CCNC(=O)C1CCCN(Cc2ccc3ccccc3c2Br)CC1 (centres undefined)	3910
COC(=O)[C@]12CCCCC=C1N(Cc1ccco1)C(=O)[C@H](CC(=O)NCc1ccc(C)o1)C2	6093

High-throughput results (PubChem)
